High-throughput results: PubChem BioAssay, several laboratories
Ecoli rRNA inh: inhibitors of bacterial rRNA selective over humanized ribosomes | E. coli WT GFP vs humanized-ribosome RFP mutants, fluorescence, 24 h; stronger effect = lower value; DMSO median 0, no signal -100 | GFP signal change (wild-type ribosome), % (concentration not given with the values) | 350,000 compounds, 1.6% hits;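 active = significant combined selectivity score with lowered wild-type GFP, culture density cut under 30%, mutant RFP and density less affected; inactive = any of these conditions unmet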; note: one replicate is shown; some compounds called inactive have numbers as strong as hits
T cruzi inh: T. cruzi replication inhibition; inhibition, % (test concentration not listed); AID 1885; T. cruzi beta-gal in NIH3T3, luminescence, 90 h; 300,000 compounds, 1.4% hits;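 active = mean inhibition across valid replicates above about 55%, limit read from the data; inconclusive = mean below that limit but half or more replicates reach it; inactive = mean below it, under half of replicates reach it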;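 note: signal also drops with host cell toxicity which is not excluded here; 0% = plate median of DMSO wells and 100% = zero luminescence signal; higher percent means less beta-gal luminescence so fewer parasites; stock transfer was 50 nL into about 50 µL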
ALR inh: inhibitors of human sulfhydryl oxidase ALR; P55789; purified ALR, DTT oxidation, H2O2 HRP-luminol luminescence; inhibition, % (test concentration not listed); 290,000 compounds, 3.8% hits; AID 485317;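 active = mean and each replicate at 75% or more; inconclusive = only one of the two met; inactive = neither met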;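 note: stock transfer was 7.5 nL into about 7.5 µL; 0% = neutral wells and 100% = wells with inactivated enzyme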
Target sequence (P55789 whole entry, looked up): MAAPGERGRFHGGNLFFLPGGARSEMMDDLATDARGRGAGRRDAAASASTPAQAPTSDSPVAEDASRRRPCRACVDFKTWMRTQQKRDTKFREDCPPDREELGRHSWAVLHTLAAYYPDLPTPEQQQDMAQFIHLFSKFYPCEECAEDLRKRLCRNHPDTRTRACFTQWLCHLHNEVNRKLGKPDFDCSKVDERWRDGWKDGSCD
LANA-H2A inh: blocks KSHV LANA binding to histone H2A/H2B. Q9QR71. cell-free LANA-H2A/H2B peptide, fluorescence polarization. inhibition, % (no concentration beside the values). 320,000 compounds, 0.6% hits; in the data active = inhibition mostly above about 10%, no sharp cut-off; inactive = mostly below about 6.7%;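 note: stock transfer was 7.5 nL into about 10 µL; 0% = median of vehicle wells and 100% = median of positive control wells; one replicate is shown; the record names a cut of 25% in any replicate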
Beta apoptosis: blocks beta cell apoptosis; INS-1E cytokine-induced death, ATP luminescence, 48 h; percent of positive-control rescue, neutral wells zero; 300,000 compounds, 0.8% hits; protection from apoptosis, % (no concentration beside the values); AID 435005;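 active = all replicates at 75% or more, or half of them and the mean; inconclusive = half reach 75% but not the mean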;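 note: 0% = cytokine-treated negative control wells and 100% = positive control rescue; higher means more ATP so stronger rescue from cytokine killing; wells of about 40 µL received 100 nL stock; the first replicate is given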
Beta2AR agonist: activates human beta-2 adrenergic receptor causing internalization; response, % (concentration not given with the values); 340,000 compounds, 0.43% hits; Am2.2-beta2AR cells, FAP receptor internalization, flow cytometry; reference of the scale not given here; P07550;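 active = response above a set limit, near 3 SD of response in nonfluorescent compounds, cut at about 42% in these data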;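 note: stock transfer was 100 nL into about 11 µL; a reference agonist was the positive control; negative values mostly stem from fluorescent compounds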
Target sequence (P07550 whole entry, looked up): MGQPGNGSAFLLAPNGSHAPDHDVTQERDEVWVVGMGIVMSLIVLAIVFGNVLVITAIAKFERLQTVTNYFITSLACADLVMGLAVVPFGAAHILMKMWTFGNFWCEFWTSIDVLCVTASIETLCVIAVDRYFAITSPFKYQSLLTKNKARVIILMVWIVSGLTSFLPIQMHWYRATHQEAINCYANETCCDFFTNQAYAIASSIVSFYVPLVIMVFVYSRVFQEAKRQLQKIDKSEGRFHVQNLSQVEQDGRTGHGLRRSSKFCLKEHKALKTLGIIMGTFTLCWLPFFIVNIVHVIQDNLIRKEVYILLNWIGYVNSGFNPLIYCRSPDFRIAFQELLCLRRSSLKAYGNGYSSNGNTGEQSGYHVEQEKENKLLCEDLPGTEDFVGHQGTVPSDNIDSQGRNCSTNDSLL
Bfl-1 A1 inh: inhibitors of the anti-apoptotic protein A1, read as caspase activation. AID 2462. 330,000 compounds, 0.066% hits. caspase activation, % (concentration not given with the values). MEF A1-2A-BIM cells, Caspase-Glo 3/7 luminescence, 3 h; percent of clofoctol response, vehicle zero;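 active = over half of replicate activation scores above 10%, or exactly half above 10 with the replicate mean above 10; inconclusive = replicate mean below 10 yet half the replicates above 10; inactive = over half of replicates below 10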;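 note: wells of about 30 µL received 50 nL stock; many hits fall short of the cut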
Calb FLC: C. albicans growth modulation with fluconazole. C. albicans CaCi-2 (fluconazole-resistant clinical isolate) + fluconazole, Alamar Blue growth, 48 h. growth inhibition, % (test concentration not listed). 300,000 compounds, 0.57% hits;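 active = most replicates above 75%; inconclusive = exactly half above 75%; inactive = most below 75%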;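 note: all wells also contain fluconazole at 8 µg/ml as a sub-toxic cotreatment; 0% = median of DMSO wells and 100% = median of geldanamycin control wells; wells of about 8 µL received 7.5 nL stock; the first replicate is given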
Ecoli rRNA inh OD600: further read-out of Ecoli rRNA inh, marked with its call; OD600 change, %; measured here: OD600 growth;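 optical density of the mix in the first replicate; 0 = DMSO median and -100 = no signal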
Ecoli rRNA inh RFP: further read-out of Ecoli rRNA inh, marked with its call; RFP signal change, %; measured here: RFP humanized mutant strains;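 first replicate; 0 = DMSO median and -100 = no signal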
* hit, by the source's call; i = inactive; ? = inconclusive; nt = not tested or not shown. Only part of the results is shown, so the mix of outcomes need not match the whole.

SMILES,Ecoli rRNA inh,Ecoli rRNA inh OD600,Ecoli rRNA inh RFP,T cruzi inh,ALR inh,LANA-H2A inh,Beta apoptosis,Beta2AR agonist,Bfl-1 A1 inh,Calb FLC
CC[C@H]1CCCCc2ccccc2[C@@H](C(=O)C[C@@H](O)CC(C)=O)OC1=O,1,6,6.0,nt,nt,-2.4,-4,12,-0.4,nt
O=C(O)C1CCN(C(=O)CSc2nc3ccccc3s2)CC1,8,8,-0.2,-14,8,-2.4,nt,10,0.2,9
CCOc1ccc(NC(=O)Cn2cc(C(=O)CC)c3ccccc32)cc1,nt,nt,nt,-9,-2,5.4,9,-11,-0.3,3
COC(=O)c1ccccc1NC(=O)C1CCCN(c2nnc(-n3cccc3)s2)C1 (centres undefined),-6,-13,0.2,21,-11,0.4,-1,-5,nt,-1
O=C(Cc1ccccc1)Nc1ccc(Cl)cn1,3,4,-0.3,-1,3,-0.1,-3,-3,-1.1,1
Cc1nn(C(=O)c2cccnc2)c(C)c1Sc1ccccc1,nt,nt,nt,-25,nt,-1.6,-16,3,0.2,6
COc1ccc(CCC(C)N(C)Cc2ccccc2)cc1 (centres undefined),12,10,-0.3,8,-12,2.2,5,-5,0.8,-5
O=C(c1cccs1)c1coc2ccc(O)c(CN(CCO)CCO)c12,nt,nt,nt,8,9,-4.5,-10,3,0.0,0
CCOc1ccc(/C=C2\SC(=O)N(CCNC(=O)CN3C(=O)NC4(CCCC4)C3=O)C2=O)cc1OC,2,-10,4.6,9,2,-1.0,1,3,-0.5,12
Cc1ccc(C)c(OCC(=O)Nc2ccccc2C(=O)N2CCN(C)CC2)c1,-4,-1,-4.3,8,-1,3.6,0,-5,-1.2,-5
CCN(CC)C(=O)c1[nH]cnc1C(=O)N[C@@H](CC(C)C)C(=O)OCc1ccccc1,-11,-3,-3.7,1,2,-2.6,-4,0,0.2,11
CC(/C=N/n1c(-c2cc(C)[nH]n2)n[nH]c1=S)=C\c1ccco1,19,12,0.5,-8,98*,-0.2,-7,2,0.9,4
CCn1nc(C)cc1C(=O)N1CCCC(N(C)CCc2ccc(OC)c(OC)c2)C1 (centres undefined),7,9,2.6,?,-6,-0.4,-7,-3,1.1,0
O=C(NCc1ccncc1)c1cccc(NS(=O)(=O)c2ccc(F)c(F)c2)c1,2,6,-2.3,nt,-3,-3.9,1,7,0.1,nt
CCN(CC)S(=O)(=O)c1ccc(NC(=S)NC(=O)C2CCC2)cc1,-8,-23,5.6,-4,nt,nt,nt,2,nt,-14
CCOC(=O)c1cnc(SC)nc1Oc1cccc(NS(=O)(=O)c2ccc(C)cc2)c1,nt,nt,nt,9,-4,-17,6,1,0.1,-16
CCOc1ccc(N2CC(C(=O)Oc3ccccc3)CC2=O)cc1 (centres undefined),nt,nt,nt,-1,7,-0.3,3,2,0.8,-11
COc1cc(C(=O)c2c(C)c(CCC#N)n3ccccc23)cc(OC)c1OC,32,10,2.8,-1,12,-2.1,-6,1,0.8,-16
COc1ccc2nc(SCc3cccc(C)c3)nc(C)c2c1,nt,nt,nt,30,nt,nt,-5,-3,0.6,5
COC(=O)CCC(=O)Nc1ccc(S(=O)(=O)N2CCc3ccccc32)cc1,9,5,0.1,2,-7,-0.4,nt,12,0.4,-1
Cc1n[nH]c(C)c1S(=O)(=O)N1CCCC(C(=O)N2CCc3ccccc32)C1 (centres undefined),nt,nt,nt,3,-9,-3.0,-1,-12,-1.3,1
COc1ccc(-c2c(C)nn(-c3ccccc3)c2N)cc1,nt,nt,nt,0,30,-1.1,-2,0,-1.2,8
C[C@@H](C(=O)NC1CCCCC1)N1C(=O)N2CCc3c([nH]c4ccccc34)[C@@]2(C)C1=O,nt,nt,nt,-11,nt,4.0,6,1,0.0,-3
CCN(CC)S(=O)(=O)c1ccc2[nH]c(=O)c3ccccc3c2c1,10,9,-0.4,9,-3,-3.2,nt,9,1.0,1
COc1ccccc1N1CCN(S(=O)(=O)c2ccc3nc(-c4ccccc4)[nH]c3c2)CC1,-6,-12,-12,17,-1,2.2,6,-8,0.8,-17
Cc1cccc(NC(=O)CSc2nnc(CNC(=O)c3ccco3)n2C)c1C,0,7,-2.5,-3,1,-5.0,nt,-4,0.6,-3
O=c1[nH]n(-c2ccccc2)c(=O)c(Cl)c1Cl,nt,nt,nt,-13,1,-6.0,-3,4,-0.3,2
Cc1cccc(CSc2nc(N)c(C#N)c(-c3cccs3)c2C#N)c1,nt,nt,nt,68*,-52,1.0,13,5,0.1,1
O=C(N=Nc1c(O)[nH]c2ccc([N+](=O)[O-])cc12)c1ccccc1[N+](=O)[O-],19,4,-5.2,2,-4,-0.3,4,17,-1.0,10
CCC(C)n1c(OC)nc2c1c(=O)n(C)c(=O)n2C (centres undefined),8,7,-1.2,-11,-3,-2.2,-2,-2,0.2,11
CCc1nc(SCC(=O)N2CCCCC2)c2c(=O)n(C)c(=O)n(C)c2n1,-18,-11,-0.3,-7,-3,-1.8,7,7,0.2,0
CN(Cc1ccccc1)C(=O)COC(=O)c1cc([N+](=O)[O-])ccc1N1CCOCC1,3,10,2.0,10,0,-1.7,nt,0,0.2,-10
CCCCCc1ccc(-c2cn(CC3CCCCC3)nn2)cc1,12,23,-0.7,-3,0,2.1,-3,1,0.3,-3
CC1(C)CC(NC(=O)c2ccncc2)CC(C)(C)N1O,4,5,2.0,-14,0,11,-7,3,0.8,-5
C#CCOCCOCCOCCNc1nc(N2CCN(C(=O)[C@H]([C@@H](C)CC)n3cc([C@@H](N)Cc4ccc(O)cc4)nn3)CC2)nc(N2CCN(C(=O)[C@H](CCCCN)n3cc([C@@H](N)CO)nn3)CC2)n1,nt,nt,nt,-23,nt,-7.5,-3,nt,-0.3,-7
O=C(Nc1ncccc1Cl)C1COc2ccccc2O1 (centres undefined),nt,nt,nt,-3,-5,-4.9,-5,5,-0.6,?
Cc1c(OCC(=O)N[C@@H](Cc2ccccc2)C(=O)O)ccc2c3c(c(=O)oc12)CCC3,nt,nt,nt,-15,5,4.0,-6,-3,0.4,6
NS(=O)(=O)c1ccc(CCNC(=O)CSc2nc3ccsc3c(=O)n2C2CC2)cc1,6,15,2.5,12,nt,3.4,2,21,0.9,-3
OCCC1CN(Cc2cn[nH]c2C2CCCCC2)CCN1C1CCCC1 (centres undefined),1,3,-0.9,3,-8,-6.1,-1,9,0.5,0
CN(Cc1ccccc1)C(NC(=O)c1ccco1)C(Cl)(Cl)Cl (centres undefined),6,9,0.6,-2,-10,-4.2,0,12,-0.3,-3
O=C(COC(=O)c1ccccc1O)Nc1ncc(Cl)cc1Cl,20,4,5.1,-9,15,3.3,-6,6,-0.7,3
CCN(Cc1nc(-c2ccc(C)cc2)no1)C(=O)c1ccco1,-20,-22,-1.6,11,-3,-2.4,-2,2,0.9,-14
O=[N+]([O-])c1ccc(C[n+]2cc(-c3ccccc3)n3c2CCCCC3)cc1,12,9,-1.8,-1,2,-2.4,-3,-2,-0.9,-14
O=C(CN1C(=O)c2ccccc2C1=O)NCc1ccncc1,nt,nt,nt,-1,3,-0.1,-5,4,-0.5,7
CCC(C)n1c(SCc2ccc([N+](=O)[O-])cc2)nc2ccsc2c1=O (centres undefined),2,-6,-4.7,40,nt,nt,9,3,0.6,27
CCOC(=O)N1CCN(c2cc(=O)n(-c3ccc(C)cc3)c(=O)[nH]2)CC1,4,0,-1.5,-3,-8,-6.2,2,-15,-1.0,-2
Cn1c(=O)c(C(=O)NNC(=O)c2ccccc2Br)c(O)c2ccccc21,-10,-17,-3.2,-3,1,-2.9,5,-12,2.9,1
O=C(O)c1cc(Cl)c(Cl)cc1C(=O)Nc1cccc2cccnc12,nt,nt,nt,1,4,0.4,-6,5,0.5,-2
Cc1ccc(OC(C)C(=O)Nc2ccncc2)cc1C (centres undefined),-1,-14,-0.4,-7,1,2.6,nt,-13,-1.1,3
COc1ccc(OC)c(-c2cc(C(=O)Nc3ccc(F)cc3F)no2)c1,5,8,-3.1,4,-5,3.5,-8,-3,-0.2,0
CCOc1ccc(N(CC(=O)NCCC2=CCCCC2)S(=O)(=O)c2ccccc2)cc1,3,6,1.4,62*,0,-8.5,1,-15,3.0,-18
CCOc1ccc(CNC(=O)CN2C(=O)C(c3ccccc3)Oc3cccnc32)cc1 (centres undefined),14,12,7.3,24,-4,15,nt,1,-0.2,-5
COc1ccccc1NC(=O)c1cc(S(=O)(=O)N2CCCC2)cn1C,-4,-3,0.8,-10,-9,6.5,-8,6,0.3,30
CCC(=O)Nc1ccc(OCC2CCCO2)cc1 (centres undefined),18,24,4.7,-3,6,-5.7,2,-4,-0.1,0
CC(C)(C)n1nnnc1CN(Cc1ccco1)Cc1cc2cc3c(cc2[nH]c1=O)OCO3,nt,nt,nt,4,5,7.5,-2,-3,0.5,4
O=C(Cc1ccccc1[N+](=O)[O-])Nc1ccc2c(c1)OCO2,10,18,12,-11,3,i,1,-4,-1.1,25
COc1ccc(N2CCN(C(=O)C34CCC(C)(C(=O)C3)C4(C)C)CC2)cc1 (centres undefined),nt,nt,nt,-4,44,6.3,-9,4,0.5,0
COc1ccc(C)cc1NC1=C(Cl)C(=O)N(C2CCCCC2)C1=O,nt,nt,nt,31,nt,2.9,5,3,0.1,-17
CCN(CC(=O)Nc1c(F)cccc1F)C(=O)c1ccc(C(=O)c2ccccc2)cc1,7,11,-2.5,-2,-10,2.1,2,1,1.7,25
C=CSc1sc(Cl)c(N(C)C)c1[N+](=O)[O-],20,22,2.2,-31,-16,-2.1,-3,-8,-0.4,2
O=C(Nc1ccc([N+](=O)[O-])cc1)OCCc1ccccn1,-2,8,0.1,0,-2,-0.7,-1,2,-1.1,-22

Shown with each value named: 2 of the compounds above
> CCc1nc(SCC(=O)N2CCCCC2)c2c(=O)n(C)c(=O)n(C)c2n1
  Ecoli rRNA inh: -18	Ecoli rRNA inh OD600: -11	Ecoli rRNA inh RFP: -0.3	T cruzi inh: -7	ALR inh: -3	LANA-H2A inh: -1.8	Beta apoptosis: 7	Beta2AR agonist: 7	Bfl-1 A1 inh: 0.2	Calb FLC: 0
> CN(Cc1ccccc1)C(=O)COC(=O)c1cc([N+](=O)[O-])ccc1N1CCOCC1
  Ecoli rRNA inh: 3	Ecoli rRNA inh OD600: 10	Ecoli rRNA inh RFP: 2.0	T cruzi inh: 10	ALR inh: 0	LANA-H2A inh: -1.7	Beta apoptosis: nt	Beta2AR agonist: 0	Bfl-1 A1 inh: 0.2	Calb FLC: -10
